# HCMV UL50-53 inh – disrupts HCMV UL50-UL53 complex binding; HTRF UL50-UL53 interaction, normalized percent inhibition; inhibition, % (test concentration not listed); hit rate 0.15% among 190,000;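 active means both replicates at 50% or more, plus weaker picks with an unusually low signal ratio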;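 further: stock transfer was 100 nL into about 20 µL; 0% = negative control wells and 100% = wells with untagged competitor protein; inactives centre near -12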
# GIV-Gai inh – inhibitors of GIV GBA-motif binding to rat Galpha-i3 | P08753 | AID 1224905 | Galpha-i3/FITC-GIV peptide fluorescence polarization, 90 min; stronger effect = lower value; scaled: aluminum fluoride 0%, vehicle 100% | percent of control (FP), % (no concentration beside the values) | hit rate 0.42% among 210,000;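 active means replicate mean at 85% of control or lower, very high polarization wells dropped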;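 further: wells of about 15 µL received 100 nL stock; the first replicate is given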
# Target sequence (P08753 whole entry, looked up): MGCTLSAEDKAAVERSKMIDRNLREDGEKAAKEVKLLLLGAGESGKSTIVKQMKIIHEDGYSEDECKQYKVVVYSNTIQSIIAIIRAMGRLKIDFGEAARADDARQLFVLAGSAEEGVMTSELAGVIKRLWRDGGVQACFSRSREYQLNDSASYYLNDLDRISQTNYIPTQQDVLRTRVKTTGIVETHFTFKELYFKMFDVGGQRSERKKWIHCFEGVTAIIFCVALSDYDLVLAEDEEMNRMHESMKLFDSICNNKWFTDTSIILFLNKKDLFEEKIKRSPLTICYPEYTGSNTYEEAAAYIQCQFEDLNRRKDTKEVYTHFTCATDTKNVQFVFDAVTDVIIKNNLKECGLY
# Sa growth inh – S. aureus growth inhibition. AID 720641. S. aureus RN4220 growth, OD600, 20 h, 42 °C; stronger effect = lower value. hit rate 0.53% among 170,000. relative growth, % (test concentration not listed);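 active means growth at 42 °C up to 50% and 20 or more points under that at 30 °C, or under 10% at both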;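 further: 300 nL library stock went into each well; scaled to the means of positive and negative controls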
# Sa growth inh second temp – also measured in Sa growth inh; calls as there; relative growth, %; measured here: growth at 30 °C;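 optical density after 20 h as mean of two plates; 100% = untreated growth and lower means inhibition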
# Active calls of the source: *; . = not tested or not shown; & = joins results of further samples; ! = not active in a repeat.
Structure	HCMV UL50-53 inh	GIV-Gai inh	Sa growth inh	Sa growth inh second temp
COc1ccc(-n2nc(C(=O)Nc3ccccn3)c3c4ccccc4n(C)c3c2=O)cc1	-25&-18	101&93	102	87
Cc1ccc(NC(=O)c2cc3cc(C)ccc3n2C)cc1	-17	100	102	93
CCCC1c2ccsc2CCN1C(=O)c1ccc(Cl)cc1 (stereo not drawn)	-25	102	101	85
ONC(=Nc1ccccc1C(F)(F)F)c1cccnc1	-4	99	109	89
Cn1c(N)c(C(=O)Cn2nnc(-c3cccc(C(F)(F)F)c3)n2)c(=O)n(C)c1=O	11	.	102	91
Cc1nn(CC(=O)NC2CCC(C)CC2)c(=O)c2cc3sccc3n12 (stereo not drawn)	-1	107	92	85
CC(=O)Nc1ccc(C(=O)CSc2nc(C)cc(=O)[nH]2)cc1	.	102	117	79
O=C(CSc1nnc(-c2ccc(F)cc2)o1)C12CC3CC(CC(C3)C1)C2	-26	.	97	80
OC(CCN1CCCCC1)c1ccc(-c2ccccc2)cc1 (stereo not drawn)	.	93	86	89
O=C(O)Cn1cc(CN2CCCC2)c2ccccc21	-18	102	91	93
Cc1cc(-c2ccccc2C(=O)Nc2ccccc2O)on1	44	104	107	77
Cc1ccccc1Cn1ccc(NC(=O)c2cc3ncc(Br)cn3n2)n1	-12	110	108	95
CCc1cc(C(=O)N2CCN(C)CC2)no1	-29	102	.	.
Cc1ccc(C(=O)n2nc(-c3cccnc3)nc2N)cc1	1	103	101	98
CCOc1cc(C=C2C(=O)NC(=S)NC2=O)ccc1OCCOCCOc1ccc(C)cc1	1	100	.	.
O=C(c1cccs1)N1c2ccccc2Sc2ccccc21	.	113	95	86
COc1cc(-c2nnc(SCC(=O)c3cc4c5c(c3)CC(=O)N5CCC4)o2)cc(OC)c1OC	-12	.	50	61
CCc1ccccc1-n1c(SCC(O)C(F)(F)F)nc2ccccc2c1=O (stereo not drawn)	-1	99	68	48
Cc1cccc(CCNC(=O)c2ncoc2-c2cccs2)c1	-44	105	96	66
CCc1nc2ccccc2nc1N1CCN(S(=O)(=O)c2ccccc2)CC1	-7	94	92	86

# A second format for part of the listing above:
# Every second line gives: HCMV UL50-53 inh, GIV-Gai inh, Sa growth inh, Sa growth inh second temp
CCc1nc2ccccc2nc1N1CCN(S(=O)(=O)c2ccccc2)CC1
    -7, 94, 92, 86
Cn1c(N)c(C(=O)Cn2nnc(-c3cccc(C(F)(F)F)c3)n2)c(=O)n(C)c1=O
    11, ., 102, 91

# Additional compounds
Structure	HCMV UL50-53 inh	GIV-Gai inh	Sa growth inh	Sa growth inh second temp
CC1(C)CC2=NNC(c3ccccc3)C2CO1 (stereo not drawn)	-13	181	101	88
Cc1cccc(NC(=O)CSc2nc3c([nH]c4ccccc43)c(=O)n2-c2ccc(F)cc2)c1C	.	104	133	79
CCOC(=O)c1c(NC(=O)CN(c2ccccc2)S(=O)(=O)N(C)C)sc2c1CCCC2	8	109	.	.
O=C(COC(=O)CSc1nc2ccccc2n1Cc1ccccc1)Nc1ccc(Cl)cc1	-11	106	.	.
O=S1(=O)N=C(Nc2cccc(C(F)(F)F)c2)c2ccccc21	6	105	104	90
O=C(CCC1=NS(=O)(=O)c2ccc(C(F)(F)F)cc2N1)NCCc1ccco1	-32	104	99	89
On1c(-c2ccccc2)cc2ccccc21	-26	97	1.6*	0.7*
O=C(Nc1nn2cc(-c3ccccc3)nc2s1)c1ccccc1	-11	.	84	75
Cc1ccc2c(c1)c1c(c(=O)n(-c3ccccc3C)c(=O)n1CC(=O)NCC1CCCO1)n2C (stereo not drawn)	.	110	101	90
CCc1nc(-c2ccc(N3CCN(C(=O)Cc4ccc(F)cc4)CC3)cc2)no1	-29	104	.	.
Cc1cc(C)cc(S(=O)(=O)Nc2cc(C(=O)O)cnc2N(CC(C)C)CC(C)C)c1	-34	117	.	.
CC(C)c1ccc(NS(=O)(=O)c2ccc3[nH]cc(C(=O)NCCc4ccccc4)c(=O)c3c2)cc1	.	106	106	81
O=C(NC1CCCCC1)C1CCN(c2nccn3nc(-c4cccs4)cc23)CC1	7	119	.	.
CC(C)CN(Cc1nnc(-c2ccccc2)o1)CC(C)C	-9	101	70	54
CC(=O)N1c2ccc(S(=O)(=O)N3CCc4ccccc43)cc2CC1C (stereo not drawn)	.	98	117	85
CCOc1ccccc1NC(=O)CCc1nc(-c2cccc(C)c2)no1	-6	105	100	80
COc1ccc(-c2nn3c(=O)cc(CN4CCN(C(=O)Nc5cc(C)ccc5C)CC4)nc3s2)cc1	.	110	101	99
O=c1[nH]nc(SCc2cc(=O)n3cc(Br)ccc3n2)n1Cc1ccccc1	-89	.	76	77
Cc1cccc(-n2c(=O)c3c(c4cc(C)ccc4n3C)n(Cc3ccccc3F)c2=O)c1	.	106	100	96
COc1ccc(CNC(=O)CCc2c(C)c3cc4c(C)c(C)oc4cc3oc2=O)cc1	8	101	106	95
Oc1c(I)cc(Cl)c2cccnc12	-54&-33&-14	99	1.3*!	0.6*!
O=C(CCSCc1cnn(-c2ccccc2)c1-n1cccc1)NCc1ccco1	8	112	116	94
C=CCn1c(=O)c(C(=O)Nc2nccs2)c(O)c2ccccc21	-25	104	.	.
CCn1c(SCc2nc3ccccc3c(=O)[nH]2)nnc1-c1ccc(OC)c(OC)c1	.	100	101	92
CN(C)c1ccc(C(CNC(=O)c2ccccc2)N2CCc3ccccc32)cc1 (stereo not drawn)	.	100	102	89
Cc1ccc(NC(=O)C2CCN(c3nc4ccccc4nc3C(F)(F)F)CC2)cc1C	.	105	81	86
Cc1[nH]c2ccccc2c1C(=O)CSC(=S)N1CCN(C)CC1	-9	101	97	80
CCOc1ccc(C2Sc3ccccc3NC3=C2C(=O)OC3)cc1 (stereo not drawn)	-18	104	89	86
COc1ccccc1C(=O)Nc1nnc(SCc2cc(=O)c3cc(Cl)ccc3[nH]2)s1	.	104	97	71
NC(=O)C1=CCc2ccccc21	1	92	97	71
COCCn1c(C)cc(O)c(C(c2ccccc2)N2CCN(c3ccccc3)CC2)c1=O (stereo not drawn)	.	101	84	94
Cc1cccc(NC(=O)Cn2c(=O)ccc3cc(S(=O)(=O)N4CCCC4)ccc32)c1C	.	100	115	81
O=C(O)c1cc(N2CCN(c3ccccc3F)CC2)nc2ccc(NS(=O)(=O)c3ccccc3)cc12	-38	99	.	.
CC1(C)C(=O)N(CC(=O)N2CCN(C3CCCCC3)CC2)c2ccccc21	-13	97	.	.
CCc1c(C)c(C#N)c2nc3ccccc3n2c1NCC(C)C	-18	107	89	96
CCOc1ccc(C(C)NCCO)cc1 (stereo not drawn)	3	107	100	93
CC1CCN(C(=O)Cn2cc(SCC(=O)NC(C)(C)C)c3ccccc32)CC1	-41	101	88	87
Cc1ccc(OCC(=O)Nc2ccc3nc(SCC(=O)N4CCCC4)sc3c2)cc1C	-12	112	103	85
COc1ccc(Cc2nnc(SC)[nH]c2=O)cc1	14	107	110	98
CCOC(=O)c1ccc2nc(C(F)(F)F)nc(NCCCO)c2c1	-30	104	86	86
NC(=O)CSc1cn(Cc2ccc(F)cc2)c2ccccc12	33	110	110	89
COC(NC(=O)c1ccccc1)c1ccccc1 (stereo not drawn)	15	104	87	85
O=C(Cn1c(=O)n(Cc2ccc(F)cc2)c(=O)c2sc3ccccc3c21)Nc1ccc(F)cc1F	-2	101	105	92
CCc1ccccc1NC(=O)c1nnn(CC(=O)Nc2c(C)cc(C)cc2C)c1N	-13	105	95	85
COCCN1C(=O)c2oc3ccccc3c(=O)c2C1c1ccc(C(=O)OC)cc1 (stereo not drawn)	-6	101	89	79
Cc1ccc(-c2cnc3ccccc3n2)cc1	-85	102	85	72
O=C(/C=C/c1ccccc1)N1CCN(Cc2cc(=O)n3nc(-c4ccccc4)sc3n2)CC1	.	102	96	88
COc1ccc(NC(=O)Cc2ccc3nc(NC(C)=O)sc3c2)cc1Cl	-33	99	.	.
N#Cc1c(F)cccc1N(Cc1cccnc1)C(=S)Nc1ccc(Cl)c(Cl)c1	-25	103	22	11
CC1=C(C(N)=O)C(c2ccccc2Cl)N2C(=O)CSC2=N1 (stereo not drawn)	-31	99	88	88
Cc1cc2c(cc1C)NC(=O)CC(c1ccccc1O)=N2	.	110	96	97
CCCN(c1ccccc1CC)S(=O)(=O)c1ccc2c(c1)CC(C)N2C(=O)C1CC1 (stereo not drawn)	.	100	71	95
Clc1ccc(N2CCN(c3ccc(-c4nc(-c5ccccc5)no4)nn3)CC2)cc1	13	102	.	.
COC(=O)c1ccc2c(c1)N(Cc1ccc(Cl)cc1)C(=O)c1ccccc1S2	.	100	84	93
COc1ccc2c(c1)c1c(c(=O)n(CCc3ccccc3)c(=O)n1Cc1cccc(F)c1)n2C	.	109	113	96
O=C(COc1ccc2ccc(=O)oc2c1)NC(=O)Nc1ccc2c(c1)OCCO2	-2	.	80	89
Cc1ccc(-n2nc(C(=O)N3CCN(c4cc(Cl)ccc4C)CC3)c(=O)n(C)c2=O)cc1	.	104	108	105
CCCN1CCC(NC(=S)Nc2ccc(C(=O)OCC)cc2)CC1	5	107	97	93
CC1=NN(CCC#N)C(=O)/C1=C\c1ccc(N)cc1	-22	105	99	94
O=C1Oc2ccccc2C(=O)/C1=C\N1CCCc2ccccc21	-17	.	35	10

# Further records.
Structure	HCMV UL50-53 inh	GIV-Gai inh	Sa growth inh	Sa growth inh second temp
O=C(Nc1ccc2c(c1)OC1(CCCC1)O2)C1CC(=O)N(C2CCCC2)C1 (stereo not drawn)	-27	.	97	86
CSc1nnc(C2CCCN2C(=O)OC(C)(C)C)o1 (stereo not drawn)	15	103	95	100
O=c1[nH]cc(-n2c(=O)c3ccccc3c3ccccc3c2=O)c(=O)[nH]1	-5	103	86	95
Cc1cc(NC(=O)c2ccc(Cl)cc2)c(C(C)C)c(S(=O)(=O)c2ccccc2)c1O	-11	.	97	80
O=C1Nc2cc(C(=O)N3CC=C(c4ccccc4)CC3)ccc2Sc2ccccc21	3	109	125	113
CCc1cc2cc(C(=O)N3CCN(c4ccccc4)CC3)sc2s1	6	.	89	98
CCc1ccc(S(=O)(=O)NCc2csc(C)n2)s1	0	99	93	83
Cn1c(=O)c2cc(S(=O)(=O)NC(C(=O)N3CCc4ccccc43)c3ccccc3)ccc2n(C)c1=O (stereo not drawn)	-14	99	109	90
O=C(C1CCCN(S(=O)(=O)c2ccc(Br)s2)C1)N1CCN(c2ccccc2F)CC1 (stereo not drawn)	-15	100	103	81
Cn1c(=O)n(C)c2cc(NS(=O)(=O)c3ccccc3)c(NCc3ccccc3)cc21	.	97	104	72
O=C1CSC(=S)N1/N=C/c1cccs1	-45	.	80	85
CCOC(=O)N1CCc2c(sc3c2C(=O)NC(c2ccc(N(C)C)cc2)N3)C1 (stereo not drawn)	-39	185	82	90
COc1ccc(-c2cc3ncc(C(=O)c4cc(F)ccc4O)cn3n2)cc1	-26	92	.	.
CC1=CC(C)C2C(=O)N(Cc3ccco3)C(=O)C2C1 (stereo not drawn)	-6	95	102	89
CCOc1ccc(-c2nnc(SCC(=O)c3ccc(Br)cc3)n2-c2ccccc2)cc1	16	101	91	96
N#C/C(=C/c1ccc(Sc2ccccc2)o1)c1cccc(F)c1	1	107	116	109
Cc1ccc(S(=O)(=O)Nc2ccc3c(c2)CCCN3C(=O)c2cccs2)cc1C	.	98	87	71
COc1ccc(-c2cc(-c3ccc(F)cc3)nc(N3CCOCC3)n2)cc1	6	110	101	92
Cc1ccnc(-n2c(CCCN3C(=O)c4ccccc4C3=O)nc3ccccc3c2=O)c1	-17	104	.	.
CCOc1ccc(CCNC(=O)c2c(C)oc3ncn(CC(C)C)c(=O)c23)cc1	.	106	108	70
Nc1nc2n(n1)C(c1ccco1)CC(c1ccc(F)cc1)N2 (stereo not drawn)	-8	101	106	94
c1ccc2c(Nc3nc(-n4ccnc4)nc(-n4ccnc4)n3)cccc2c1	4	.	97	70
Cc1cccc(N2CCN(S(=O)(=O)c3ccc4c(c3)n(C)c(=O)n4C)CC2)c1C	18	112	91	95
N#Cc1cc2c(nc1SCc1ccncc1)CCC2	-58	104	86	89
CC(CNc1ccccc1)C(=Nc1ccccc1)Nc1ccccc1 (stereo not drawn)	3	107	65	83
NS(=O)(=O)c1ccc(CCNC(=O)CCn2cnc3c([nH]c4ccc(F)cc43)c2=O)cc1	-18	103	.	.
O=C(NCCc1ccccn1)c1cccc(S(=O)(=O)N2CCc3ccccc32)c1	-14	.	104	102
C=CCn1c(=O)[nH]c2ccccc21	.	102	87	91
Cc1ccc(-n2c3c(cc(C(=O)NCCc4c[nH]c5ccccc45)c2=O)C(=O)CC(C)(C)C3)cc1	-13	104	.	.
CCN1CCN(c2nc3ncn(CC(=O)Nc4ccc(F)c(F)c4)c(=O)c3s2)CC1	-17	101	.	.
CCCC(O)=NS(=O)(=O)c1ccc(N=NN(C)C)cc1	-3	90	85	118

# Limited to Sa growth inh second temp, GIV-Gai inh and HCMV UL50-53 inh, for some of the entries so far:
Structure,Sa growth inh second temp,GIV-Gai inh,HCMV UL50-53 inh
Cc1ccc(-n2c3c(cc(C(=O)NCCc4c[nH]c5ccccc45)c2=O)C(=O)CC(C)(C)C3)cc1,.,104,-13
CCN1CCN(c2nc3ncn(CC(=O)Nc4ccc(F)c(F)c4)c(=O)c3s2)CC1,.,101,-17
CCCC(O)=NS(=O)(=O)c1ccc(N=NN(C)C)cc1,118,90,-3
